From PubChem BioAssay
UCH37 inh = human UCH37 deubiquitinating enzyme inhibition. Q9Y5K5. purified proteasome/UCH37, Ub-AMC cleavage fluorescence. inhibition, % (no concentration beside the values). 330,000 compounds, 0.33% hits. AID 588478;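 active = mean of two replicates above 20%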;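 also: 0% = compound-free wells with enzyme and 100% = wells lacking proteasome; stock transfer was 100 nL into about 20 µL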
Target sequence (Q9Y5K5 whole entry, looked up): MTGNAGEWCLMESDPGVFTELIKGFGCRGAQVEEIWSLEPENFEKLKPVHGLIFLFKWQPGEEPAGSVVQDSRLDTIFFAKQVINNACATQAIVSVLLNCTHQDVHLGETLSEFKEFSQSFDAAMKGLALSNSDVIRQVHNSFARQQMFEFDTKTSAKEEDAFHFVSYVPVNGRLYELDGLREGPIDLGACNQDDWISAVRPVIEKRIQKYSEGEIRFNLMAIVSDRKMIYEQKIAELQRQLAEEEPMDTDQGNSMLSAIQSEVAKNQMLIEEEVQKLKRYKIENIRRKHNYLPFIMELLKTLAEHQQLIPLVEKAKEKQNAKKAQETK
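assay system = human UCH37 enzyme supplied as purified proteasome complex | amount = proteasome at 0.15 nM in the dispensed enzyme solution | schedule = 30 min compound-proteasome preincubation then 25 min substrate reaction, room temperature | measured by = fluorescence, ex 355 nm, em 460 nm | benchmarks = no-proteasome wells (full inhibition) and compound-free wells (no inhibition)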
ALR inh = blocks human ALR sulfhydryl oxidase activity; P55789; purified ALR, DTT oxidation, H2O2 HRP-luminol luminescence; inhibition, % (test concentration not listed); 290,000 compounds, 3.8% hits; AID 485317;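 active = mean and each replicate at 75% or more; inconclusive = only one of the two met; inactive = neither met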;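 also: stock transfer was 7.5 nL into about 7.5 µL; 0% = neutral wells and 100% = wells with inactivated enzyme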
Ecoli growth = E. coli growth inhibition | Escherichia coli growth, OD600, 23 h; stronger effect = lower value | OD600 absorbance (concentration not given with the values) | 330,000 compounds, 0.21% hits | AID 1053175;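 active = OD600 absorbance below the run mean of sample wells minus 3.6 SD, in any replicate, cut at about 0.56 in these data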;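 also: stock transfer was 300 nL into about 60 µL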
FGF22 binding = FGF22 (human) thermal shift binding | Q9HCT0 | recombinant FGF22 thermal shift, SYPRO orange fluorescence; percent of sucrose octasulfate shift, DMSO zero | calls only at 9.99 µM | 340,000 compounds, 1.5% hits | AID 651658;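 active = melting point raised past a set limit in the mean and every replicate; inconclusive = no clear call; three in four hits are not shown here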
Target sequence (Q9HCT0 whole entry, looked up): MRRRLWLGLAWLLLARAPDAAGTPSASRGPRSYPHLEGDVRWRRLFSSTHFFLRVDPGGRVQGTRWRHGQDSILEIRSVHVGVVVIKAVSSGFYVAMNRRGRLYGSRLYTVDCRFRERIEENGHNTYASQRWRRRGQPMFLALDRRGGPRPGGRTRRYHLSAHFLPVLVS
B2AR ag = human beta-2 adrenergic receptor agonism by FAP. P07550. Am2.2-beta2AR cells, FAP receptor internalization, flow cytometry; reference of the scale not given here. response, % (no concentration beside the values). 340,000 compounds, 0.43% hits;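 active = response above a set limit, near 3 SD of response in nonfluorescent compounds, cut at about 42% in these data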;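 also: stock transfer was 100 nL into about 11 µL; a reference agonist was the positive control; negative values mostly stem from fluorescent compounds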
Target sequence (P07550 whole entry, looked up): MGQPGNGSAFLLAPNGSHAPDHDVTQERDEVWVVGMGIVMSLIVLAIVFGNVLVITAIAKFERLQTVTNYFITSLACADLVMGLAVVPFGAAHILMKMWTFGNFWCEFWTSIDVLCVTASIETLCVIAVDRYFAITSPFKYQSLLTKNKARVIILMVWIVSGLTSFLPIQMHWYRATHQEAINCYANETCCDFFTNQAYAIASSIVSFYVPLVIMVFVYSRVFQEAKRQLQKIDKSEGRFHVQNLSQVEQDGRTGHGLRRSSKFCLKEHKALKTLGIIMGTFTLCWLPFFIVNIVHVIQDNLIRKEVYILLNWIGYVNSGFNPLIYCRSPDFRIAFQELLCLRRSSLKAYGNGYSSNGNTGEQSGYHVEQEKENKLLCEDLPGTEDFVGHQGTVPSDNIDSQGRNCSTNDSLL
LANA-H2B inh = blocks KSHV LANA binding to histone H2A/H2B | Q9QR71 | AID 2629 | inhibition, % (no concentration beside the values) | cell-free LANA-H2A/H2B peptide, fluorescence polarization | 320,000 compounds, 0.6% hits; in the data active = inhibition mostly above about 10%, no sharp cut-off; inactive = mostly below about 6.7%;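 also: stock transfer was 7.5 nL into about 10 µL; 0% = median of vehicle wells and 100% = median of positive control wells; one replicate is shown; the record names a cut of 25% in any replicate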
HNF4A DNA FP = change in binding of human HNF4 alpha to DNA | 360,000 compounds, 0.3% hits | HNF4a-FITC DNA binding, fluorescence polarization, 1 h | AID 1224865 | P41235 | activity change, % at 10 µM; in the data active = activity change above about 30%, passing the limit was not always enough;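 also: controls were the assay level and a saturating level of protein; the project sought stronger binding though the title names inhibitors; some compounds called inactive have numbers as strong as hits; positive values seem to mean higher polarization but the record does not say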
* hit, by the source's call; i = inactive; ? = inconclusive; / = not tested or not shown. These rows are one share of the data. The share of hits here may be higher or lower than overall.

SMILES	UCH37 inh	ALR inh	Ecoli growth	FGF22 binding	B2AR ag	LANA-H2B inh	HNF4A DNA FP
Cc1cccc2cc3c(N)c(C(=O)N4CCOCC4)sc3nc12	3.4	6	0.71	/	5	2.1	2.3
CC1=CC(C)C2C(=O)N(CCC[N+](C)(C)C)C(=O)C2C1 (stereo unspecified)	2.6	3	0.72	/	-11	-3.3	-1.4
NC(=O)C1CC(=O)N(c2ccc(OCc3c(Cl)cccc3Cl)cc2)C1 (stereo unspecified)	3.6	-7	0.65	i	1	-1.4	2.4
CCOC(=O)c1c(NC(=O)C(Sc2ccccc2)c2ccccc2)sc(C(=O)N(C)C)c1C (stereo unspecified)	-1.1	-4	0.69	/	2	1.0	-1.3
CC(C)(C)C1CCC(=O)C(C2(O)C(=O)Nc3ccccc32)C1 (stereo unspecified)	2.7	-6	0.72	/	2	2.3	-0.6
Cc1c(C2OC(=O)C3(CCCCC3)C(=O)C2(C)C)c(=O)n(-c2ccccc2)n1C (stereo unspecified)	0.6	12	0.69	/	-1	0.8	2.9
Cn1c(=O)oc2cc(S(=O)(=O)N3CCN(c4ccccc4F)CC3)ccc21	4.3	-19	0.68	i	-102	-4.2	7.9
COc1ccccc1OCCn1cc(/C=C(\C#N)C(=O)NCc2ccco2)c2ccccc21	-4.7	/	0.7	/	-1	4.0	1.0
CCn1c(COc2ccccc2C)nnc1SCC(=O)N1CCCCC1	3.0	-16	0.65	/	-4	1.3	-1.2
O=C(Nc1ccc(S(=O)(=O)N2CCOCC2)cc1)c1ccc(Cl)s1	-1.1	-28	0.7	i	3	3.3	-3.4
CCn1ncc(C2=NOC(C(=O)Nc3ccc(C)cc3)C2)c1C (stereo unspecified)	-0.1	-6	0.72	/	-1	4.2	-2.2
N#C/C(C(=O)NCc1ccco1)=C1/SC(Cc2ccc(Cl)cc2)C(=O)N1c1ccccc1 (stereo unspecified)	3.9	-2	0.75	/	2	3.8	11
Cc1nnc(Nc2ccccc2)n(N)c1=O	2.3	-3	0.67	/	15	-0.4	0.9
COc1ccccc1CCC(=O)N1CCN(C(=O)c2ccccc2)CC1	0.3	0	0.71	i	-3	2.9	-1.5
CCc1ccc(NC(=O)CSc2nnc(Cc3cccn3C)n2-c2ccc(F)cc2)cc1	7.1	58	0.71	i	-5	-0.8	-1.5
CCOc1ccc(C2C3=C(CCCC3=O)Nc3ccc4ncccc4c32)cc1 (stereo unspecified)	-57	-22	0.64	i	2	-3.4	3.8
O=C(O)c1cnccn1	1.6	0	0.67	i	0	-0.7	-2.8
C=CCNC(=O)/C(C#N)=C/c1ccc(OS(=O)(=O)c2ccc(C)cc2)c(OC)c1	3.6	/	0.69	i	-65	-3.5	0.1
COc1ccc(N(C(=O)c2ccco2)S(=O)(=O)c2cccc([N+](=O)[O-])c2)cc1	5.2	-4	0.73	/	1	-3.6	-2.0
CN1CCC(OC(c2ccccc2)c2ccc(Cl)cc2)C1 (stereo unspecified)	2.3	/	0.65	i	10	/	3.2
CSC1=NCCN1C(=O)c1cccc(Br)c1	0.8	0	0.71	/	1	2.5	-1.7
COc1ccc(CCN(C)C(=O)c2ccc(S(=O)(=O)Nc3ccccc3C)cc2)cc1OC	1.1	-7	0.65	i	/	-2.0	/
CN(C1CCCCC1)S(=O)(=O)c1ccc(C(=O)Nc2sc3c(c2C(N)=O)CC(C)(C)NC3(C)C)cc1	-59	-15	0.69	i	27	2.3	-3.5
COc1ccc(NC(=O)CSC(C)c2nc3ccccc3c(=O)[nH]2)cc1 (stereo unspecified)	4.7	-16	0.73	i	-3	2.1	-0.8
Cc1cc(=O)[nH]c(N/N=C/c2cccs2)n1	/	50	/	/	-11	6.8	2.5
COC(=O)c1ccc(C2C(C#N)=C(N)Oc3cc(O)ccc32)cc1 (stereo unspecified)	-1.4	3	0.69	i	7	-0.1	5.1
COc1cccc(NC(=S)N(CCCN2CCCC2)Cc2ccco2)c1	5.5	/	0.71	i	-10	2.1	-8.5
Cc1cc(C(=O)NN=C(CCC(=O)O)c2cccs2)c(C)o1	3.2	7	0.7	i	3	-1.8	0.2
Cn1cc(CCC(=O)N2CCCC(Nc3ccc(F)cc3)C2)cn1 (stereo unspecified)	-0.5	?	0.64	i	-4	-6.4	-5.3
COC(CNC(=O)C(=O)Nc1ccc2c(c1)N(S(=O)(=O)c1cccs1)CCC2)OC	4.6	/	0.68	i	-14	-5.6	-3.6
NC(=O)NNC(=S)Nc1cccc2ccccc12	-2.3	13	0.71	i	5	-5.5	1.8
COc1ccc(CCNC(=O)C2(C)CCC(=O)N2Cc2ccc(F)cc2Cl)cc1OC (stereo unspecified)	0.6	-13	0.67	i	3	-1.8	-1.0
CCOC(=O)C1CCCN(C(=O)c2cn(C)c(=O)c3cc(OC)c(OC)cc23)C1 (stereo unspecified)	-1.3	1	0.66	/	-5	-3.8	3.5
O=C(O)c1cn[nH]c1-n1cnnn1	0.7	-16	0.68	/	7	2.3	-2.6
COc1ccc(C(=O)NNC(=O)C2CC=CCC2)cc1 (stereo unspecified)	3.8	-9	0.66	i	6	0.4	4.5
O=C(Cn1nc(-c2ccccc2)ccc1=O)NCCCN1CCOCC1	-0.8	/	0.71	i	1	0.0	5.8
Clc1ccc(SCc2nc3ccccc3[nH]2)cc1	-1.2	-4	0.68	/	2	-5.0	-0.2
Cn1cc([N+](=O)[O-])c(C(=O)N(Cc2ccccc2)Cc2ccccc2)n1	2.7	-22	0.7	/	-2	0.2	1.5
CC(C)(C)c1ccc(-c2noc(-c3ccno3)n2)cc1	6.0	/	0.69	i	4	1.7	-1.7
CCn1cc(CN2CCCC(CNC(=O)COc3ccccc3OC)C2)c(C)n1 (stereo unspecified)	3.6	-4	0.66	i	-1	-1.6	-2.5

One compound at a time (already shown):
Entry for O=C(O)c1cn[nH]c1-n1cnnn1 : UCH37 inh = 0.7; ALR inh = -16; Ecoli growth = 0.68; FGF22 binding = /; B2AR ag = 7; LANA-H2B inh = 2.3; HNF4A DNA FP = -2.6
Entry for CCn1cc(CN2CCCC(CNC(=O)COc3ccccc3OC)C2)c(C)n1 (stereo unspecified) : UCH37 inh = 3.6; ALR inh = -4; Ecoli growth = 0.66; FGF22 binding = i; B2AR ag = -1; LANA-H2B inh = -1.6; HNF4A DNA FP = -2.5

(more compounds)
SMILES	UCH37 inh	ALR inh	Ecoli growth	FGF22 binding	B2AR ag	LANA-H2B inh	HNF4A DNA FP
Cc1ccc(/C=C/C(=O)N2CCN(c3ncccn3)CC2)o1	5.0	15	0.66	/	-5	0.4	-5.7
CCN(CC)S(=O)(=O)c1ccc2c(c1)nc(SCC(=O)N1CCCCCC1)n2-c1ccc(OC)cc1	1.4	-19	0.73	/	-13	0.1	-0.7
CC1Sc2ccc(S(=O)(=O)CCC(=O)NCc3cccs3)cc2NC1=O (stereo unspecified)	5.5	0	0.64	i	-1	2.9	0.4
CN(CC(=O)Nc1ccccc1Br)C(=O)c1ccccc1OCc1ccc(F)cc1	1.3	-2	0.66	i	1	3.1	1.5
O=C(c1cccc(S(=O)(=O)Nc2ccccc2Cl)c1)N1CCN(c2ccccc2O)CC1	-1.0	31	0.66	i	6	6.9	-2.3
CCOCCOC(=O)C1=C(C)N(C)C(=O)NC1c1cc(Cl)c(O)c(OCC)c1 (stereo unspecified)	4.3	/	0.63	/	-1	-1.4	-13
O=C(CSc1nnnn1Cc1ccccc1)N1CCN(c2ccccc2)CC1	2.8	56	0.69	/	-6	-2.6	2.9
CCCCN(C(=O)CCC(=O)OCC(=O)NCc1ccccc1)c1c(N)n(CCC)c(=O)[nH]c1=O	1.7	-2	0.68	i	14	0.8	-4.6
COc1ccc(NC(=O)N2CCN(S(=O)(=O)c3ccc(F)cc3)CC2)c(OC)c1	1.4	-21	0.7	i	-2	-8.2	0.0
Cc1ccn2c(NC(=O)c3cccs3)c(-c3ccccc3)nc2c1	5.1	-1	0.67	/	0	-5.7	-1.3
CCOc1ccc(NC(=O)CS(=O)CC(=O)N(CC(=O)NC(C)(C)C)C2CCCC2)cc1 (stereo unspecified)	-0.2	-8	0.67	i	5	2.5	-0.7
CNc1nccc(-c2ccc(Cl)cc2)c1C#N	-156	/	0.64	i	9	-1.3	-2.0
CCN(CC)C(=O)CN1C(=O)NC2(CCc3ccccc3C2)C1=O (stereo unspecified)	2.2	-5	0.72	i	-3	1.6	-2.1
N=C1/C(=C\c2ccc(-c3cc(Cl)cc(Cl)c3)o2)C(=O)N=C2SC=C(c3ccccc3)N12	11	6	0.73	/	9	-1.0	4.0
CCOC(=O)c1c(C)[nH]c(C(=O)CN2C(=O)NC(C)(C)C2=O)c1C	0.1	/	0.73	i	2	/	-0.5
Cc1ccc(OCc2cc(C(=O)N3CCCC(O)C3)no2)cn1 (stereo unspecified)	0.9	1	0.67	i	-3	-5.3	-2.6
CC(=O)c1sc(NC(=O)CCS(=O)(=O)c2ccc(C)cc2)nc1C	3.0	/	0.7	i	-3	0.8	1.1
Cc1cccc2sc(N3CCN(C(=O)C4COc5ccccc5O4)CC3)nc12 (stereo unspecified)	-2.8	-1	0.64	i	-9	-1.4	0.8
CS(=O)(=O)N(CC(=O)N1CCCC1)c1ccc(OCc2ccccc2)cc1	3.9	2	0.68	i	-25	-1.5	3.0
CCOC(=O)C1CCCN(C(=O)c2ccc([N+](=O)[O-])c(C)c2)C1 (stereo unspecified)	2.2	-2	0.7	/	2	3.1	-1.1
COc1cc(C(O)P(=O)(OC(C)C)c2ccc(N(C)C)cc2)cc(OC)c1OC (stereo unspecified)	-0.6	0	0.7	/	3	1.6	-2.6
Cn1c(Cc2ccccc2)nnc1SCc1ccc(C(=O)O)cc1	-1.1	-2	0.71	/	-1	3.0	3.4
N#C/C=C/N1CCN(C(=O)c2ccco2)CC1	-0.7	/	0.71	i	8	-3.3	1.7
CCC(CC)c1nnc(NC(=O)CCc2ccc(OC)cc2)s1	1.7	-5	0.67	i	-1	0.4	-0.2
Cc1ccc(CNc2nc(C)c(C(=O)N(C)C)s2)cc1	4.1	1	0.66	i	-2	1.3	0.1
COC(=O)C1=C[C@@H](C(=O)OC)[C@@H]2C3=C(C(=O)C2(C)C)[C@H](C)n2c(=O)n(-c4ccccc4)c(=O)n2[C@@H]3C1	4.8	-12	/	i	6	1.1	0.0
COc1ccc(NC(=O)C2CCCN2S(=O)(=O)c2ccc(Cl)cc2)cc1 (stereo unspecified)	4.1	5	0.7	i	-2	1.2	-2.1
O=C(O/N=C/c1cccc([N+](=O)[O-])c1)C1CC1	/	17	/	/	0	-2.9	0.9
O=C(O)CN(Cc1ccco1)S(=O)(=O)c1ccc(F)cc1	-0.7	0	0.68	/	-1	2.9	4.3
COc1ccc(CNC2CCCC2)c(OC)c1OC	0.1	-3	0.71	/	2	1.5	2.1
CC(=O)Nc1cc(O)cc(O)c1	-0.6	22	0.67	i	-10	6.2	0.9
C=CCN1C(=O)c2ccccc2Sc2ccc(C(=O)NCC(OC)OC)cc21	3.2	1	0.67	i	-7	3.8	-6.8
O=C(CCCC(=O)OCC(F)(F)C(F)F)Nc1ccc(NC(=O)CCCC(=O)OCC(F)(F)C(F)F)cc1	3.8	/	0.68	/	9	-2.6	2.8
CCOC(=O)c1c(S(=O)(=O)NCC(=O)N2CCN(c3ccc(OC)cc3)CC2)c(C)n(C)c1C	0.3	35	0.66	i	8	0.8	-0.3
CCC[N+](CC#CCO)(CC#Cc1ccccc1)CCC	4.0	/	0.69	i	-6	-0.1	3.2
CCN1CCc2[nH]c3ccccc3c2C1	4.8	37	0.65	i	-9	2.2	0.3
O=C1CSC(=S)N1/N=C/c1c(F)cccc1F	/	/	/	i	10	-4.5	0.2
